GIRK2 act – activators of human GIRK2 potassium channels; P48051; HEK293-GIRK2 thallium flux, Thallos fluorescence; calls only for hits at 25 µM; 63,000 compounds, 0.05% hits; AID 1259325;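 active = among the strongest 0.2% of first-round signals and kept after retests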;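 note: first round at about 10 µM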
Target sequence (P48051 whole entry, looked up): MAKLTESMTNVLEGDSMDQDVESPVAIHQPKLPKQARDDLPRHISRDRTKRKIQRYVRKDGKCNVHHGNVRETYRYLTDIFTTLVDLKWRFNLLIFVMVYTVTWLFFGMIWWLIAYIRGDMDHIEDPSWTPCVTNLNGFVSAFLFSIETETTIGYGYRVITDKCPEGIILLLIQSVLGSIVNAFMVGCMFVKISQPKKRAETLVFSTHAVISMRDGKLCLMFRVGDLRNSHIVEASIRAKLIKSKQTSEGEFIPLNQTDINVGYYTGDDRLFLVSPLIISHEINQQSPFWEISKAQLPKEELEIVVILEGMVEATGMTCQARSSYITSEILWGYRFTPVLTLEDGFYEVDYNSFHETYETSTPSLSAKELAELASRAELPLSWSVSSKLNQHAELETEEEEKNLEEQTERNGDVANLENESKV
Calls only; i = inactive. Some of the compounds tested; the hit share may differ from the screen's.

Start of the data: the first 15 compounds, ahead of the listing:
GIRK2 act	SMILES
i	O=C(NCc1ccc2c(c1)OCO2)C1CCN(c2nccn3nc(-c4ccc(F)cc4)cc23)CC1
i	O=C(NCc1ccc(OC(F)(F)F)cc1)C1CN(C(=O)c2ccc(F)c(F)c2)C1
i	O=C(Nc1nccs1)C1CCN(C(=O)c2cccc(C(F)(F)F)c2)CC1
i	COc1cccc2cc(C(=O)Nc3ccc(-n4nnn(C)c4=O)cc3)c(=O)oc12
i	O=C(Nc1cnoc1)c1cc(-c2ccco2)on1
i	Cc1ccc(S(=O)(=O)N(C)c2ccsc2C(=O)NCc2ccccn2)cc1Cl
i	Cc1ccccc1OCc1ccc(C(=O)N2CC(C)OC(C)C2)o1 (configuration not stated)
i	Cc1ccc(=O)n(CC(=O)NCc2cccs2)n1
i	c1ccc(CC2CCN(Cc3nc(-c4ccc(N5CCSCC5)nc4)no3)CC2)cc1
i	CCN(CC)C(=O)Oc1ccc2c(c1C)O/C(=C\c1ccc(OC)c(OC)c1)C2=O
i	Cc1ccc(C)c(NC(=O)Cn2nc3n(C)c(=O)c4c(c(-c5ccccc5)cn4C)n3c2=O)c1
i	CCOCCn1c(N2CCN(C/C=C\c3ccccc3)CC2)nc2c1c(=O)[nH]c(=O)n2C
i	CCc1nnc(NC(=O)CCc2ccc(-c3ccc(F)cc3)o2)s1
i	COc1ccc(CC(=O)N2CCc3cc(S(=O)(=O)N4CCOCC4)ccc32)cc1
i	O=C(c1ccc(-n2cccc2)cc1)N1CCC(Oc2ccccn2)CC1

The listing, previewed entries included:
GIRK2 act	SMILES
i	O=C(NCc1ccc2c(c1)OCO2)C1CCN(c2nccn3nc(-c4ccc(F)cc4)cc23)CC1
i	O=C(NCc1ccc(OC(F)(F)F)cc1)C1CN(C(=O)c2ccc(F)c(F)c2)C1
i	O=C(Nc1nccs1)C1CCN(C(=O)c2cccc(C(F)(F)F)c2)CC1
i	COc1cccc2cc(C(=O)Nc3ccc(-n4nnn(C)c4=O)cc3)c(=O)oc12
i	O=C(Nc1cnoc1)c1cc(-c2ccco2)on1
i	Cc1ccc(S(=O)(=O)N(C)c2ccsc2C(=O)NCc2ccccn2)cc1Cl
i	Cc1ccccc1OCc1ccc(C(=O)N2CC(C)OC(C)C2)o1 (configuration not stated)
i	Cc1ccc(=O)n(CC(=O)NCc2cccs2)n1
i	c1ccc(CC2CCN(Cc3nc(-c4ccc(N5CCSCC5)nc4)no3)CC2)cc1
i	CCN(CC)C(=O)Oc1ccc2c(c1C)O/C(=C\c1ccc(OC)c(OC)c1)C2=O
i	Cc1ccc(C)c(NC(=O)Cn2nc3n(C)c(=O)c4c(c(-c5ccccc5)cn4C)n3c2=O)c1
i	CCOCCn1c(N2CCN(C/C=C\c3ccccc3)CC2)nc2c1c(=O)[nH]c(=O)n2C
i	CCc1nnc(NC(=O)CCc2ccc(-c3ccc(F)cc3)o2)s1
i	COc1ccc(CC(=O)N2CCc3cc(S(=O)(=O)N4CCOCC4)ccc32)cc1
i	O=C(c1ccc(-n2cccc2)cc1)N1CCC(Oc2ccccn2)CC1
i	O=C(COc1ccc2c(=O)c(-c3ccc4c(c3)OCCO4)coc2c1)c1ccccc1
i	CN(C)c1cccc(C(=O)N(CCc2cccs2)Cc2ccoc2)c1
i	COc1ccc(NC(=O)/C=C/c2ccc(OC)c(OC)c2)c(OC)c1
i	O=C(CC(c1ccccc1)c1ccccc1)N1CCN(c2ccc3nncn3n2)CC1
i	COc1cccc(CNC(=O)C2CCCN(c3nc4c(-c5ccccc5)csc4c(=O)[nH]3)C2)c1 (configuration not stated)
i	COc1ccccc1N1CCN(c2nnc(SCC(=O)NCc3ccco3)s2)CC1
i	Cn1cc(C(=O)N2CCN(CC(O)C3CC3)CC2)nn1 (configuration not stated)
i	COc1ccc(Cn2c(=O)c3oc4ccccc4c3n(CC(=O)Nc3ccc(OC)cc3)c2=O)cc1
i	CCCCn1c(SCC(=O)Nc2ccc(NC(C)=O)cc2)nc2c(-c3ccccc3)c[nH]c2c1=O
i	Cc1nnc(C2CCCN(C(=O)c3ccc(F)cc3F)C2)s1 (configuration not stated)
i	O=C(Nc1ccccc1)Nc1ccc2c(c1)N(S(=O)(=O)c1ccccc1)CCC2
i	O=C(CSc1nccnc1N1CCc2ccccc2C1)Nc1cccc(Cl)c1
i	O=C(Cc1noc2ccccc12)Nc1cc(-n2ccc3ccccc32)ncn1
i	O=S(=O)(Cc1ccc(C(F)(F)F)cc1)N1CCC(c2ccsc2)CC1
i	Cn1cc(C2=C(c3cccc(Cl)c3)C(=O)NC2=O)c2ccccc21

Overlap with the part before: 2 compounds, followed by the next part.
GIRK2 act	SMILES
i	O=S(=O)(Cc1ccc(C(F)(F)F)cc1)N1CCC(c2ccsc2)CC1
i	Cn1cc(C2=C(c3cccc(Cl)c3)C(=O)NC2=O)c2ccccc21
i	Cc1ccc(-c2csc(NC(=O)C3CCN(S(=O)(=O)c4ccc(F)cc4)CC3)n2)cc1C
i	COc1ccc(CNC(=O)N2CCN(CCn3ccnc3-c3ccccc3)CC2)cc1OC
i	COc1ccc(C)c2sc(N(CCCn3ccnc3)C(=O)c3cccs3)nc12
i	COc1ccc(/C=C/C(=O)OC2CC(C)(O)C3C(OC4OC(CO)C(O)C(O)C4O)OC=CC23O)cc1 (configuration not stated)
i	Cc1cc2ncn(C(C)C(=O)N3CCCCCC3)c2cc1C (configuration not stated)
i	COc1ccc(OC)c(NC(=O)CSc2cc(-c3ccccn3)nc(C)n2)c1
i	O=C(c1ccc(=O)oc1)N1CCN(CC(F)(F)F)CC1
i	Cc1ccc(S(=O)(=O)Nc2ccc3c(c2)CCC(=O)N3Cc2ccccc2)cc1
i	NCc1ccc(-n2c(-c3nonc3N)nc3cnccc32)cc1
i	COc1cccc(NC(=O)Nc2ccc(-c3csc4nc(C)cc(=O)n34)cc2)c1
i	CCOC(=O)CSc1nc2cc(C(=O)OC)ccc2c(=O)n1Cc1ccc(Cl)cc1
i	Cc1ccc(S(=O)(=O)c2cnc(SCC(=O)Nc3ccc(C)c(C)c3)[nH]c2=O)cc1
i	COc1ccc(OC)c(-c2cc(C(=O)NCC(O)c3ccoc3)n(C)n2)c1 (configuration not stated)
i	CCOc1ccc(C(=O)NCCNc2cc(-n3cccn3)nc(C)n2)cc1
i	CC(C)S(=O)(=O)c1ccc(C(=O)N(Cc2ccncc2)c2nc3c(F)cccc3s2)cc1
i	CCOC(=O)c1ccc(S(=O)(=O)NCCn2ncccc2=O)cc1
i	COc1ccc(OC)c(COCC(O)CN2CCN(c3ccccc3)CC2)c1 (configuration not stated)
i	CC1C(=O)NCCN1C(=O)c1cc(Cl)ccc1Cl (configuration not stated)
i	CCOC(=O)C1CCN(c2ncc3c(=O)n(C4CCCC4)c(=O)[nH]c3n2)CC1
i	O=C(CN1CCN(c2ccc(F)c(F)c2)C1=O)NCCO
i	COc1ccccc1NC(=O)CN1C(=O)C2(SCC(=O)N2c2ccc(Cl)cc2)c2ccccc21 (configuration not stated)
i	C=C(C)COc1ccc(-c2nc(N)ncc2-c2ccc(OC)c(OC)c2)c(O)c1
i	Clc1ccc(COC(Cn2ccnc2)c2ccc(Cl)cc2Cl)c(Cl)c1 (configuration not stated)
i	O=S(=O)(NC1CCCCC1N1CCOCC1)c1ccccc1 (configuration not stated)
i	O=C(Nc1ccc(S(=O)(=O)N2CCOCC2)cc1)C12CC3CCC(CC(C3)C1)C2
i	COc1cccc(CNC(=O)C2CCCN(c3ccc(-c4nc(C)no4)cn3)C2)c1OC (configuration not stated)
i	O=C1CC(C(=O)Nc2ccc3c(c2)OCO3)c2ccccc21 (configuration not stated)
i	C[C@@H](c1ncncc1F)[C@](O)(Cn1cncn1)c1ccc(F)cc1F
i	Cc1nc(-c2cccs2)sc1CNC(=O)c1ccc2n[nH]nc2c1
i	O=S(=O)(c1ccc(F)c(Cl)c1)N1CCC(CSCc2ccco2)CC1
i	CCOc1ccc(-c2ccc(OCCNC(=O)c3ccccc3OCC)nn2)cc1
i	COCCn1nnn(-c2ccc(NC(=O)C(=O)c3c[nH]c4ccccc34)cc2)c1=O
i	CS(=O)(=O)N1CCN(c2nc(N3CCOCC3)nc(-n3ccnc3)n2)CC1
i	CCc1ccc(NC(=O)CNC(=O)c2ccc(=O)[nH]c2)cc1
i	COc1cccc(S(=O)(=O)Nc2ccc(C(=O)N3CCCC3)cc2)c1
i	COc1ccc(S(=O)(=O)c2c(C(=O)N3CCC(C)CC3)cnc3ccc(F)cc23)cc1
i	N#Cc1nc(-c2ccccc2Cl)oc1N1CCN(C(=O)c2ccc(Cl)cc2)CC1
i	COc1ccccc1N1C(=O)/C(=C/c2ccccc2)SC1=S
i	COC(=O)c1ccc(NC(=O)C(=O)NCc2ccccn2)cc1
i	CCn1c(CN(CCO)CCO)nc2ccccc21
i	Cc1ccc(NC(=O)NC2(c3nc(-c4ccncc4)no3)CCCCC2)cc1F
i	Cc1nccn1-c1ncc(NC(=O)Nc2ccc(F)c(Cl)c2)cn1
i	CCCCOc1ccc(NC(=O)N2CCc3nc(NC(C)=O)sc3C2)cc1
i	O=C(CN1C(=O)CCC1=O)N1CC(c2nc(-c3cccc(Cl)c3)no2)C1
i	O=C(Nc1ccc2c(c1)CCCN2C(=O)c1ccccc1)NC1CCCCC1
i	O=C(NCCC(c1ccccc1)c1ccccc1)C(=O)NC1CCCCCC1
i	CCC(C(=O)NCCOC)n1cc(-c2nc(-c3ccsc3)no2)ccc1=O (configuration not stated)
i	O=C(NCC(O)c1ccoc1)C(=O)Nc1ccc2c(c1)N(S(=O)(=O)c1cccs1)CCC2 (configuration not stated)
i	CCCNC(=O)Cn1nc(-c2ccc(F)cc2)c2sc(N3CCCC3)nc2c1=O
i	O=C(NCCC(O)C1CC1)C(=O)Nc1ccccc1Cl (configuration not stated)

Going on with the list:
GIRK2 act	SMILES
i	Cc1ccc(=O)n(CC(=O)Nc2cc(N3CCC(C)CC3)ncn2)n1
i	Cc1ccc(C(=O)COC(=O)c2ccc(O)cc2O)cc1
i	COc1ccc(-c2noc(CC(N)=S)n2)cc1OC
i	CCOCCn1c(=O)c2c(nc3n(-c4ccc(C(F)(F)F)cc4)c(C)cn23)n(C)c1=O
i	CC(C)(C)C(=O)N1CCCC(COCc2ccccc2)C1 (configuration not stated)
i	CC1CN(c2ccccc2)c2nc3c(c(=O)n(CC(=O)OCc4ccccc4)c(=O)n3C)n2C1 (configuration not stated)
i	CCN(CC)C(=O)Oc1ccc2c(=O)c(-c3ccc(Cl)cc3)c(C)oc2c1
i	Cc1ccc(-n2ncc3c(=O)n(CC(=O)N4CCC(C)CC4)cnc32)cc1
i	Cc1ccc(S(=O)(=O)NCCCC(=O)O)c(C)c1N(C)S(C)(=O)=O
i	O=S(=O)(c1ccc(Cl)cc1)N1CCCC(c2nc(-c3ccc(C(F)(F)F)cc3)no2)C1 (configuration not stated)
i	Cc1ccc(-c2nc3c(c(=O)n2CC(=O)Nc2ccccc2Cl)CCN(Cc2ccccc2)C3)cc1
i	COc1ccc(NC(=O)CSc2nc3c(-c4ccccc4)c[nH]c3c(=O)n2C2CC2)c(OC)c1
i	COc1ccc(CNC(=O)C(=O)NCC(c2cccs2)N2CCOCC2)cc1 (configuration not stated)
i	Cc1ccccc1NC(=O)CSc1nnc(CCc2nc3ccccc3[nH]2)o1
i	COc1cccc(S(=O)(=O)N2CCN(c3ccc(-n4cccc4)nn3)CC2)c1
i	CC1(C)Cc2cccc(OCC(=O)NCCCn3ccnc3-c3ccccc3)c2O1
i	CCCN1C(=O)CCc2cc(NC(=O)c3cccc(OC)c3)ccc21
i	Cc1noc(C)c1CCC(=O)N1CCN(c2ccc(F)cc2)CC1
i	Cc1ccc(S(=O)(=O)N(C)c2c(C)ccc(S(=O)(=O)NC(C)C)c2C)cc1
i	O=S(=O)(Nc1nc2ccccc2nc1NCc1ccco1)c1cccs1
i	CCc1ccc(NC(=O)Cn2cc(S(=O)(=O)c3ccc(C)cc3)c(=O)c3cc(Cl)ccc32)cc1
i	O=C1CCC(=O)N(O)CCCCCNC(=O)CCC(=O)N(O)CCCCNC(=O)CCC(=O)N(O)CCCCCN1
i	COC(=O)c1ccoc1-c1sc2nc(C)cc(C)c2c1N
i	CCc1nc(OCC(=O)Nc2ccc3c(c2)OCO3)c2ccccc2n1
i	COc1ccc(NC(=O)CSc2nnc(-c3ccccc3)n2N)cc1OC
i	CCCCn1c(C2CC(=O)N(c3cccc(C)c3)C2)nc2ccccc21 (configuration not stated)
i	CCOC(=O)c1nc(NC(=O)Nc2cc(Cl)ccc2OC)sc1Cl
i	COc1ccc(NC(C)=O)cc1NC(=O)CCn1c(=O)oc2ccc(Cl)cc21
i	O=C(NCCN1CCN(c2ccccc2)CC1)C(=O)NC1CCCC1
i	O=C(Cc1csc(NC(=O)c2ccc(=O)[nH]c2)n1)NCc1nc2ccccc2[nH]1
i	COCCn1c(-c2ccccc2)c[nH]c1=S
i	O=C(NCCn1nc(-c2ccco2)ccc1=O)c1cccc(-n2cnnn2)c1
i	CCOC(=O)Cn1c(=O)c2c(nc3n2CCCN3c2ccc(Br)cc2)n(C)c1=O
i	CCCCn1c(SCC(=O)Nc2ccccc2C(=O)OCC)nc2c(sc3ncccc32)c1=O
i	Cc1ccc(O)c([C@H](CCN(C(C)C)C(C)C)c2ccccc2)c1
i	Cc1nc2ccccc2n1Cc1ccc(C(=O)NCCc2ccccc2)o1
i	O=C(Nc1ccc(Cl)c2ncsc12)c1ccc(Cl)cc1Cl
i	Cc1nc(-c2nnn(-c3cccc(Cl)c3)c2C)sc1C(=O)N1CCN(c2ccccc2)CC1
i	CN(C)c1ncc(NC(=O)Nc2ccccc2)cn1
i	O=C(NCCCO)C(=O)Nc1ccc(N2CCCS2(=O)=O)cc1
i	Cc1cc(F)ccc1S(=O)(=O)N1CCCCC1CCNC(=O)C(=O)NCCN1CCOCC1 (configuration not stated)
i	O=C(CN1C(=O)c2ccccc2C1=O)NCCN1CCN(c2ccccc2)CC1
i	Cc1nn2c(NCCOCCO)cc(C(C)(C)C)nc2c1-c1ccccc1Cl
i	O=C(CSCc1ccccc1)N1CCN(c2ncnc3c2nnn3-c2ccc(Cl)cc2)CC1
i	Cc1cccc(N2CCn3c2nc2c3c(=O)n(CCN3CCCCC3)c(=O)n2C)c1C
i	COc1ccc(Cn2cnc3c4ccccc4n(CC(=O)Nc4cc(OC)cc(OC)c4)c3c2=O)cc1
i	O=C(Nc1ccc(F)cc1F)c1nnn(Cc2ccc(Cl)cc2)c1-n1cccc1

Bioassay records from PubChem BioAssay.
